# HSD17B inhib – qHTS Assay for Inhibitors of HSD17B4, hydroxysteroid (17-beta) dehydrogenase 4; recombinant HSD17B10, NADH fluorescence kinetic; many of its hits are not listed in these tables; hit rate 7.6% among 75,000; 3-hydroxyacyl-CoA dehydrogenase type-2 (Homo sapiens), Q99714; Potency, µM (top dose mostly 57.1 µM), for inactives: at the top dose activity change, negative = inhibition, actives largely listed as inhibitors; active means well fitted inhibition curve with a large enough effect; inconclusive means small, poorly fitted or top-dose-only effect; inactive means no such curve, though single readings can be large or run the other way;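 further: the protocol describes HADH2 (HSD17B10) and not the HSD17B4 of the title; nearly all actives have a fitted effect of over 70% in size; most hits overshoot -100% by far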
#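 Activity followed as NADH fluorescence increase (ex 360, em 450 nm) every 30 seconds for 4 min, using final 90 uM beta-hydroxybutyryl CoA and 1 mM NAD+. Recombinant His-tagged enzyme, 20 nM, pH 9.0 Tris buffer, 15 min compound preincubation.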
# Starred values were filed as active, the others as inactive; ? = inconclusive; [ ] = another dose, or the depositor's remark. On the % scale 0 is the no-effect control and ±100 the full control effect; potency means the concentration at half of the fitted maximal effect.
molecule	HSD17B inhib
CC1(CC(=O)O)C(=O)N=C2C=CC=CN21 (stereo not drawn)	25µM*
CCC(O)CNc1nc(SC)nc2sc3c(c12)CCN(C)C3 (stereo not drawn)	-3%
Cc1nnc(SCC(=O)N2CC(=O)Nc3ccccc32)n1-c1ccccc1	3%
COC(=O)[C@@H]1C[C@@]2(O)[C@@H](O)[C@@H](O)[C@@H](O)C[C@H]2N1CC1CCCCC1	6%
CCOC(=O)c1cc(-c2cccnc2)nn1-c1ccccn1	6%
O=C(CCN1CCOCC1)Nc1cccc(Br)c1	7%
COc1ccccc1NC(=O)CSc1nnc(CNC(=O)c2ccco2)o1	-4%
COc1ccccc1-c1cc(C(=O)N2CCCCC2)no1	-3%
O=C(COc1ccc(Br)cc1CO)Nc1ccccc1F	-1%
CCOCCc1nnc(NC(=O)COC)s1	7%
CCOC(=O)N1CCN(c2c(N3CCN(c4ccccc4OC)CC3)c(=O)c2=O)CC1	-4%
CC(C)CC(C(=O)Nc1ccc2c(c1)OCCO2)N1C(=O)c2ccccc2C1=O (stereo not drawn)	3%
CCOc1cc(N2CCOCC2)c(OCC)cc1NC(=O)c1ccc(=O)n(Cc2ccccc2)n1	12%
COc1ccc(NC(=O)c2cc(=O)c3ccccc3o2)cn1	12%
COc1cc(C2C(C#N)=C(N)Oc3c2oc(CO)cc3=O)cc(OC)c1OC (stereo not drawn)	2%
Brc1cccc(-c2nnco2)c1	9%
CCCc1[nH]nc2c1C(c1cc(OC)ccc1F)C(C#N)=C(N)O2 (stereo not drawn)	-23%
Nc1[nH]nc2nc(N3CCOCC3)nc(-c3ccccc3)c12	-5%
Cc1cccc(O)c1C	-2%
c1ccc(-c2ccc(-c3ccccn3)nn2)nc1	-7%
O=S(=O)(c1ccccc1)N1CCC2(CCCN(Cc3ccccc3)C2)CC1	-4%
COc1ccc(N=C2SC(C(=O)O)CC(=O)N2C)cc1 (stereo not drawn)	10%
Cc1ccc(S(=O)(=O)N2CCC(C(=O)N[C@H](C(=O)N3CCN(C)CC3)C(C)C)CC2)cc1	-2%
COCC(=O)Nc1ccc(C)c(Cl)c1	14%
CS(=O)(=O)N(Cc1cc2ccccc2[nH]c1=O)C1CCCCC1	4%
O=C(CN1C(=O)CC(c2ccccc2)=Nc2ccccc21)NCc1ccco1	-8%
c1nc(NCC2CCCO2)c2[nH]cnc2n1 (stereo not drawn)	12%
Cc1ccc(C)c(/C(=N\N=C(N)N)C2CC2)c1	2%[11.4 µM]
CCC(=O)NCCn1c(C)cc2ccccc21	-8%
COC(=O)c1cc(-c2c(C)oc3cc(OC(C)C)ccc3c2=O)c(C)o1	-1%
CCOc1ccc(OCCN2C(=O)NC3(CCCc4ccccc43)C2=O)cc1 (stereo not drawn)	4%
CCOc1ccccc1/C=c1\sc2nc(-c3ccco3)nn2c1=O	?
COc1cc(C(=O)OC2CCN(C)CC2)cc(OC)c1OC	-2%
O=C(c1ccc2c(=O)n(-c3ccccc3)c(=O)[nH]c2c1)N1CCN(c2ccc(F)cc2)CC1	-11%
COc1ccc(N(C(=O)c2ccco2)S(=O)(=O)c2cc(OC)ccc2OC)cc1	-4%
CCOC(=O)CSc1nc2ccccc2c(=O)n1NC(=O)c1ccccc1	5%
O=C(c1ccccn1)N(CC1CCCO1)C1(C(=O)NC2CCCCC2)CCCCC1 (stereo not drawn)	3%
COc1ccc(CCNC(=O)c2c(O)c3c([nH]c2=O)CCCC3)cc1	1%
COC(=O)c1nc(NC2=NCCCCC2)n[nH]1	3%
CCCCCC(=O)N1CCN(CCN=CC2=C(O)CC(c3ccco3)CC2=O)CC1 (stereo not drawn)	-6%
O=C(O)CSC1CC(=O)N(c2ccc(Cl)cc2)C1=O (stereo not drawn)	-9%
CC(NC(=O)c1cc2sccc2n1C)c1ccc2c(c1)OCCO2 (stereo not drawn)	-1%
Cc1oc(-c2ccccc2F)nc1CS(=O)(=O)CC(=O)NCCCN(C)C1CCCCC1	4%
COc1ccc(C(=O)N2CCC[C@@]3(CCN(C(=O)Nc4cccc(F)c4)C3)C2)cc1	-5%
COc1cccc(C2CC(c3ccc(C)cc3)n3nc(N)nc3N2)c1 (stereo not drawn)	16%
CC(=O)C1=C(C)NC(=O)NC1c1cccc(O)c1 (stereo not drawn)	-2%
O=C1c2nc3ccccn3c2C(=O)N1Cc1ccccc1	7%
CC1=Nc2ncnn2C(c2ccccc2)/C1=N\O (stereo not drawn)	-12%
CCOC(=O)C1C(=O)NC(N2CCN(c3ccccc3)CC2)=NC1c1ccco1 (stereo not drawn)	8%
Cn1c(NCc2ccco2)nc2c1c(=O)n(Cc1ccc(Cl)cc1)c(=O)n2C	-4%

# Part of the list above, as labelled records.
CCOC(=O)C1C(=O)NC(N2CCN(c3ccccc3)CC2)=NC1c1ccco1 (stereo not drawn)
  HSD17B inhib: 8%

COc1ccc(C(=O)N2CCC[C@@]3(CCN(C(=O)Nc4cccc(F)c4)C3)C2)cc1
  HSD17B inhib: -5%

CC(=O)C1=C(C)NC(=O)NC1c1cccc(O)c1 (stereo not drawn)
  HSD17B inhib: -2%

# Next entries.
molecule	HSD17B inhib
Cc1cc(C(=O)N2CCC(C(F)(F)F)n3nccc32)on1 (stereo not drawn)	4%
CCOC(=O)c1ccc(NC(=O)CN2C(=O)CNC2=O)cc1	-2%
O=C(C1Cc2ccccc2CN1S(=O)(=O)c1cccs1)N1CCCCCC1 (stereo not drawn)	-1%
C=CCc1c(C)nc(SC)nc1Nc1ccc(C(=O)O)cc1	-14%
CC1CCC/C(=C\Nc2ccc3c(c2)OCO3)C1=O (stereo not drawn)	-13%
CC(=O)Nc1nonc1-c1nc2ccccc2n1CCC#N	?
Cc1cc(C)cc(N(CC(=O)NCc2cccnc2)S(C)(=O)=O)c1	5%
Cc1ncn(-c2ccccc2O)c1C	4µM*
CN1CCN(Cc2ccc(-c3ccc(Cl)cc3)o2)CC1	-4%
CCc1cccc(C)c1NC(=O)C1C2CCC(O2)C1C(=O)O (stereo not drawn)	2%
O=C1c2ccccc2C(=O)N1Cc1nc(-c2ccccc2)no1	-2%
CC(C)C(c1nnnn1Cc1ccc(F)cc1)N1CCN(C2CCCCC2)CC1 (stereo not drawn)	8%
Cc1cc(C)n(CC(O)COc2ccccc2C(=O)Nc2ccccc2)n1 (stereo not drawn)	9%
CCOC(=O)CNC(=O)C(=O)c1c(O)[nH]c2ccccc12	9%
CCOC(=O)C1CCN(C(=O)C2CCN(c3nc4ccc(OC)cc4s3)CC2)CC1	3%
Cc1ccc(S(=O)(=O)c2nc(-c3ccc(F)cc3)oc2SCC(N)=O)cc1	3%
N#Cc1c(N)nc(-c2ccccc2)nc1-c1ccccc1	-21%
Cc1csc(SCC(=O)O)n1	-3%
COc1ccc(OC)c(-c2cc(C(=O)N3CCN(c4ccccc4)CC3)no2)c1	?
CCn1c(=O)cc(SCC(=O)NCc2ccccn2)c2ccccc21	?
O=C1Cc2c([nH]c3ccc(Br)cc23)-c2ccccc2N1	?
c1ccc2c(c1)ncn2CCn1cnc2ccccc21	1%
O=c1n(-c2ccccc2)c(=O)n(Cc2ccccn2)n1Cc1ccccn1	6%
CC(C)OC(=O)c1nnc(Cc2ccc(F)cc2)o1	-2%
CC1C(=O)OC2CC34C5CC(C(C)(C)C)C36C(OC(=O)C6O)OC4(C(=O)O5)C21O (stereo not drawn)	8%
COc1cccc(Nc2ncc3nc(CCc4ccccc4)c(=O)n(C[C@H]4CCCO4)c3n2)c1	-2%
Cc1cc(=O)[nH]c(SCc2nc3ccccc3s2)n1	2%
CCOc1cc(C2C3=C(CCCC3=O)NC3=C2C(=O)CCC3)ccc1OCCO	-14%
O=C(O)c1ccc2cc[nH]c2c1	25µM*
CCC(Sc1nc2ccccc2[nH]1)C(=O)Nc1cc(C)on1 (stereo not drawn)	-3%
COc1ccc(CCNC(=O)CSc2nc(C)nc3c2c(=O)n(C)c(=O)n3C)cc1OC	11%
Cc1nn2c(=O)nc3sc4c(c3c2[nH]c1=O)CCCC4	2%
COc1ccccc1-c1nn2c(C(F)(F)F)nnc2s1	?
COc1cccc(NC(=O)N2CCN(C(=O)C(Cc3ccc(OC)c(OC)c3)NC(C)=O)CC2)c1 (stereo not drawn)	2%
N#Cc1nc(COc2ccccc2)oc1N1CCOCC1	9%
CCCn1c(C)nc2c(NCCN3CCCCC3)nc(C)nc21	8%
CCC(=O)N1CCc2cc(S(=O)(=O)NC(C(=O)NCc3ccc(F)cc3)C(C)C)ccc21 (stereo not drawn)	4%
CN(C)c1ccc(NC(=O)Cn2cc3c(n2)CCCC3)cc1	-15%
Fc1ccc(OCc2nc(-c3ccc(Br)o3)no2)c(F)c1	-17%
Cc1cccc(NC(=O)c2snc3c(=O)[nH]cnc23)c1	14%
CC(=O)Nc1ccc(-c2nnn(CC(=O)c3ccccc3)n2)cc1Cl	4%
O=C(CSc1nnc(-c2c[nH]c3ccccc23)o1)N1c2ccccc2CCc2ccccc21	-2%
COc1cc(C(=O)Nc2ccc(S(=O)(=O)Nc3onc(C)c3C)cc2)cc(OC)c1OC	-1%
CCOc1ccc(-c2[nH]nc3c2C(c2ccc4c(c2)OCO4)C(C#N)=C(N)O3)cc1OC (stereo not drawn)	-19%
N#Cc1cccc(-c2cncnc2NCc2cccnc2)c1	?
Cc1cc(NC(=O)CSc2nnnn2Cc2ccccc2)no1	5%
O=C(CSc1nc(-c2ccco2)cc(C(F)(F)F)n1)N1CCc2ccccc2C1	?
O=C(COC(=O)CNS(=O)(=O)/C=C/c1ccccc1)NC1CCS(=O)(=O)C1 (stereo not drawn)	-13%
COc1ccc(-c2cc(=O)c3c(O)cc(O[C@@H]4OC(COC5OC(C)C(O)C(O)[C@@H]5O)C(O)C(O)C4O)cc3o2)cc1 (stereo partly drawn)	-2%
COc1cccc([C@@H]2Oc3ccc(OC)cc3/C(=N/O[C@@H](C)CN3CCCCc4nc(C)c(C)cc43)[C@@H]2O)c1	1%[11.4 µM]

# Continued:
Molecule	HSD17B inhib
Nn1c(SCC(=O)Nc2ccc(F)cc2)nnc1-c1cccnc1	-2%
O=S(=O)(NCCc1ccccc1)c1cccc(S(=O)(=O)N2CCOCC2)c1	-8%
CC(CCc1nc2ccccc2s1)(c1ccc(O)cc1)c1ccc(O)cc1	-26%[11.4 µM]
C=CCn1c(COc2ccccc2)nnc1SCC(=O)O	-1%
Cn1ccnc1C(O)c1cc(C(C)(C)C)c(O)c(C(C)(C)C)c1 (stereo not drawn)	6%
Cc1nn(C(=O)c2ccoc2C)c(N)c1-c1ccccc1	-1%
COc1ccc(C(=O)NCC(c2cccnc2)N2CCN(c3ccccc3)CC2)cc1OC (stereo not drawn)	8%
COC(=O)[C@@]1(Cc2ccc(OC)cc2)[C@H]2c3cc(C(=O)N(C)C)n(Cc4nc5ccccc5[nH]4)c3C[C@H]2CN1C(=O)c1ccccc1	20µM*
CC1=C(C(N)=O)C(c2ccc(C)o2)C(C(N)=O)=C(C)N1	4%
CCOCCCNC(=O)Cc1ccc(OC)c(OC)c1	4%
COC(=O)c1ccc(COc2ccc(-c3nn[nH]n3)cc2)cc1	1%
CC1(C)Cc2ccccc2-c2nnc(-c3ccc(O)cc3)n21	8%
Cc1nn(Cc2ccc(C(=O)N3c4ccc(F)cc4CCC3C)o2)c(C)c1Br (stereo not drawn)	-8%
O=C1N(CC(=O)N2CCc3ccccc32)CCN1Cc1ccc(Cl)cc1	0%
CC(=O)N1CCN(C(=O)CCc2nc3sc4c(c3c(=O)[nH]2)CCCC4)CC1	?
CN1CCN(c2ncc3nc(-c4cc(F)cc(F)c4)c(=O)n(-c4ccccc4)c3n2)CC1	10µM*
Cc1c(Cl)cccc1NC(=O)CSCC(N)=O	9%
O=C(NC1CCCCCCC1)c1ccc2c(c1)OCO2	3%
Cn1c(=O)c2c(nc(SCCNS(=O)(=O)c3ccccc3)n2C)n(C)c1=O	0%
Cc1cc(N2C(=O)c3ccc(C(=O)NCc4ccccc4)cc3C2=O)no1	-5%
COc1ccc(N(C)C(=O)c2ccc3snnc3c2)cc1	-1%
CCOC(=O)C1=C(C)NC2=C(C(=O)CC(C)(C)C2)C1c1ccc(N(C)C)cc1 (stereo not drawn)	?
Cc1ccc(CN2CC34C=CC(O3)C(C(=O)NCc3ccc5c(c3)OCO5)C4C2=O)cc1 (stereo not drawn)	-4%
Cc1ccc(S(=O)(=O)NC2OC(=O)C(Cl)=C2Cl)cc1 (stereo not drawn)	-2%
Cc1cc(NC(=O)CSc2ncn(-c3ccccc3)n2)no1	-4%
COc1cc(NS(=O)(=O)c2ccc(N)cc2)ncn1	1%
Cc1onc(-c2c(F)cccc2Cl)c1C(=O)N1CCN(S(C)(=O)=O)CC1	14%
Cc1ccc(-c2cc(C(=O)NCc3ccco3)c3ccccc3n2)o1	4µM*

# Random excerpt: two compounds from above.
Molecule	HSD17B inhib
O=C(c1ccccn1)N(CC1CCCO1)C1(C(=O)NC2CCCCC2)CCCCC1 (stereo not drawn)	3%
CCOc1ccc(-c2[nH]nc3c2C(c2ccc4c(c2)OCO4)C(C#N)=C(N)O3)cc1OC (stereo not drawn)	-19%

# A draw from above in order of molar mass, rising.
Molecule	HSD17B inhib
COC(=O)c1ccc(COc2ccc(-c3nn[nH]n3)cc2)cc1	1%
Cc1ccc(S(=O)(=O)NC2OC(=O)C(Cl)=C2Cl)cc1 (stereo not drawn)	-2%
Cn1c(=O)c2c(nc(SCCNS(=O)(=O)c3ccccc3)n2C)n(C)c1=O	0%

# Compound activity from PubChem BioAssay.

# Some of the compounds tested (hit frequency here may not be typical).
